Compound activity deposited in PubChem by ICCB-Longwood Screening Facility, Harvard Medical School.
Sa growth 42C – blocks Staphylococcus aureus growth; S. aureus RN4220 growth, OD600, 20 h, 42 °C; active compounds read low; relative growth, % (concentration not given with the values); hit rate 0.53% among 170,000; AID 720641;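 active means growth at 42 °C up to 50% and 20 or more points under that at 30 °C, or under 10% at both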;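 further: 300 nL library stock went into each well; scaled to the means of positive and negative controls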
GIV-Gai inh – blocks GIV peptide binding to rat Galpha-i3; Galpha-i3/FITC-GIV peptide fluorescence polarization, 90 min; active compounds read low; scaled: aluminum fluoride 0%, vehicle 100%; percent of control (FP), % (concentration not given with the values); hit rate 0.42% among 210,000; AID 1224905;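 active means replicate mean at 85% of control or lower, very high polarization wells dropped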;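 further: wells of about 15 µL received 100 nL stock; the first replicate is given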
Target sequence (P08753 whole entry, looked up): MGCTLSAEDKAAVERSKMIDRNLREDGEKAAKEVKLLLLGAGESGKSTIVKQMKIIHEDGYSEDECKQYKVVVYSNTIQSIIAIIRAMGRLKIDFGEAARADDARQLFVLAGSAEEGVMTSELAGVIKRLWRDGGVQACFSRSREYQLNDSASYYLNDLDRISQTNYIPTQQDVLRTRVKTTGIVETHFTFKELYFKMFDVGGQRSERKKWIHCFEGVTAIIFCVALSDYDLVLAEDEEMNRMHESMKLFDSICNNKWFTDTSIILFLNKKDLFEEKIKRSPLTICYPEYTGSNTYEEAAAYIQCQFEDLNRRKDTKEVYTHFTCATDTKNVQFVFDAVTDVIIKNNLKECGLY
HCMV NEC inh – cytomegalovirus nuclear egress complex inhibition. HTRF UL50-UL53 interaction, normalized percent inhibition. inhibition, % (test concentration not listed). hit rate 0.15% among 190,000;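 active means both replicates at 50% or more, plus weaker picks with an unusually low signal ratio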;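 further: stock transfer was 100 nL into about 20 µL; 0% = negative control wells and 100% = wells with untagged competitor protein; inactives centre near -12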
Sa growth 42C second temp – recorded beside Sa growth 42C, whose call it bears; relative growth, %; measured here: growth at 30 °C;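 optical density after 20 h as mean of two plates; 100% = untreated growth and lower means inhibition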
* marks the source's active call; other numbers are inactive results; · = not tested or not shown; & = joins results of further samples.

molecule,Sa growth 42C,Sa growth 42C second temp,GIV-Gai inh,HCMV NEC inh
COc1cccc(C(=O)Nc2ccc(Cc3ccc(NC(=O)c4cccc(OC)c4)cc3)cc2)c1,91,92,98,·
CS(=O)(=O)Nc1ccc(-c2cn3ccccc3n2)cc1,106,92,105,-12
O=C(Cn1cc(S(=O)(=O)CC(=O)N2CCc3ccccc32)c2ccccc21)N1CCCC1,114,97,108,0
CSc1ncc(C(=O)N2CCN(c3cccc(C(F)(F)F)c3)CC2)c(C)n1,93,93,105,·
Nc1nc(Cl)c(-c2ccccc2)c(Cl)n1,94,97,·,-7
COC(=O)c1ccccc1NC(=O)c1oc2c(c1C)-c1[nH]ncc1CC2,104,69,101,-6
COc1cccc(CNC(=O)CCn2nc(-c3ccccc3)ccc2=O)c1,138,88,102,·
CC(C)CSc1nc2c(sc3ncccc32)c(=O)n1Cc1ccccc1,·,·,103,62*
Cc1ccc(F)cc1NC(=O)CCSc1nc(-c2ccco2)cc(C(F)(F)F)n1,89,92,107,-2
CCCCCNC(=O)C1CCC(Cn2c(=O)c3sccc3n(CC(=O)NC(C)C)c2=O)CC1 (stereo not drawn),·,·,102,-22
O=C(NC1CCCCCC1)C1Cc2cc(Cl)ccc2O1 (stereo not drawn),108,83,·,0
CCn1c2c(c(=O)n3ncc(C(=O)Nc4cc(Cl)ccc4OC)c13)CN(Cc1ccc(OC)cc1)CC2,98,87,101,·
CCCCCn1c(CCCNC(=O)c2cccc(C)c2)nc2ccccc21,96,55,104,5
Cn1c(=O)n(C)c2cc(N3CCCCC3)c(NC(=O)c3ccc(C(C)(C)C)cc3)cc21,112,88,100,-8
CCC(C)N1CC(C(=O)O)CC1=O (stereo not drawn),91,94,100,-35
CC(C)(CNS(=O)(=O)c1ccccc1Br)N1CCOCC1,87,95,·,-11
Cn1nc(C(=O)N2CCCC2)c2c1-c1ccccc1SC2,81,86,100,·
COc1cccc(CNC(=O)c2ccc3c(c2)nc2n3CCC(C)C2)c1OC (stereo not drawn),104,90,101,·
CC1CNc2c(cccc2S(=O)(=O)N[C@@H](CCCN=C(N)N)C(=O)N2CC[C@@H](C)C[C@@H]2C(=O)O)C1 (stereo partly drawn),90&99,91&97,98,-43
CN(C)CCCN(C(=O)c1ccc2c(c1)OCCO2)c1nc2ccccc2s1,97,89,102,·
COc1ccc(S(=O)(=O)N2CCN(c3cccc(C)c3C)CC2)c2ccccc12,93,101,104,19
CC(C)CCNC(=O)c1cc2c(=O)n3ccccc3nc2s1,95,93,103,·
O=C(NCCc1ccc(Cl)cc1)c1ccc(Nc2nc3ccccc3n3nnnc23)cc1,117,91,104,-10
O=C(c1ccc(Nc2nc3ccccc3n3nnnc23)cc1)N1CCN(c2cccc(C(F)(F)F)c2)CC1,103,95,105,-6
Oc1ccccc1-c1cc(-c2ccc(Cl)cc2)n[nH]1,133,95,99,-22
CC1CCN(CCC(=O)Nc2ccc(Br)cc2)CC1,100,103,98,-17
CC(CC(=O)Oc1ccc(C(F)(F)F)cc1)S(=O)(=O)c1ccc(Cl)cc1 (stereo not drawn),98,95,98,-6
O=C(c1cccs1)N(Cc1ccccc1)Cc1ccccc1,100,88,99,-9
Cc1ccc(N2CC(C(=O)NCCS(=O)(=O)N3CCc4ccccc4C3)CC2=O)cc1C (stereo not drawn),·,·,104,-14
CC1CC(=O)Nc2ccccc2N1C(=O)c1ccccc1 (stereo not drawn),111,82,97&103,-10&-16
CN(C)c1ccc(C(=O)NCCn2c(C(F)(F)F)nc3cccnc32)cc1,·,·,104,4
O=C(CCCn1nc(-c2ccccc2)c2ccccc21)N1CCN(c2ccc(F)cc2)CC1,95,60,101,·
Cc1ccccc1CSc1nc(-c2cccc(F)c2)nc2c1Cc1c(CO)cnc(C)c1O2,84,97,104,·
CC(C)(C)OC(=O)N1CSCC1C(=O)O (stereo not drawn),105,70,96,0
COc1cc(C2C3=C(CC(C)(C)CC3=O)OC3=C2C(=O)CC(C)(C)C3)cc(OC)c1O,·,·,103,-20
CCOC(=O)c1c(C)nn(-c2cccc(C)c2C)c1C,·,·,98,-17
CCC1CCCCN1CCCNC(=O)C1CCC(Cn2c(=O)[nH]c3ccccc3c2=O)CC1 (stereo not drawn),119,91,106,1
CCSc1nnc(NC(=O)C2CCC(=O)N2S(=O)(=O)c2ccc(C)cc2)s1 (stereo not drawn),·,·,103,2
O=C(NCc1ccc(Cl)cc1)C1CCN(c2nc3ccccc3n(Cc3ccccc3)c2=O)CC1,·,·,102,-25
CC(C)c1ccc(NC(=O)C(c2ccccc2)N2CCN(C=O)CC2)cc1 (stereo not drawn),96,86,106,-29
Cc1ncsc1CCSc1nc2ccccc2c(=O)n1C,96,89,96,8
C/C(N)=C(/C#N)C(=O)CSc1ncnc2scc(-c3ccccc3)c12,102,97,·,10
O=C(Cn1nc(-c2ccc3c(c2)OCCO3)ccc1=O)Nc1ccc(N2CCOCC2)cc1,94,91,100,3
O=C(Cn1nc(S(=O)(=O)c2ccc(Br)cc2)ccc1=O)NC1CCCC1,·,·,100,-31
O=C(NCCc1ccccc1)Nc1ccc2c(c1)N(Cc1ccccc1)C(=O)c1ccccc1S2,87,85,96&100,-8
Cc1ccc(Cl)cc1NC(=O)CC1NCCNC1=O (stereo not drawn),·,·,94,-14
CCc1cccc(-n2nnc(-c3nc(-c4ccccc4)no3)c2C)c1,·,·,104,-18
CC(C#N)OC(=O)c1ccc(S(=O)(=O)N(C)C)cc1 (stereo not drawn),94,96,·,-4
Cc1nn(-c2ccccc2)c(OC(=O)c2ccccc2Cl)c1S(=O)(=O)c1ccccc1,93,89,105,-7
CCOC(=O)c1c(C)[nH]c(C)c1S(=O)(=O)NCC(=O)Nc1cccnc1,·,·,104,-20

(continued)
molecule,Sa growth 42C,Sa growth 42C second temp,GIV-Gai inh,HCMV NEC inh
O=C(CCCOc1ccccc1)N1CCN(Cc2ccc3c(c2)OCO3)CC1,103,94,·,-15
COc1cc(/C=c2\sc3nc4cc(C)c(C)cc4n3c2=O)c(Br)cc1OCC(=O)O,81,60,121,·
CCOc1ccc(-c2c(C)nn3c(C)c(C(=O)Nc4cccc(OC)c4)cnc23)cc1OCC,·,·,109,6
CCN(C(=O)c1cc2c(=O)n3ccccc3nc2n1C)C1CCCCC1,84,87,·,-33
CCc1ccc(C(=O)c2cn(CC(=O)Nc3cccc(C)c3C)c3nc(C)ccc3c2=O)cc1,89,97,106,·
CC(=O)N1CCOc2cc(S(=O)(=O)NCc3ccccc3Cl)c(Cl)cc21,94,104,103,·
CN(C)C(=O)Sc1nnc(C2CC2)n1-c1ccc(Cl)cc1,103,94,95,-9
COC(CNC(=O)C1CCCN1C(=O)OCc1ccccc1)OC (stereo not drawn),117,93,99,-17
COc1ccc(S(=O)(=O)N2CCN(C(c3ccc(OC)c(OC)c3)c3nnnn3C3CCCCC3)CC2)cc1 (stereo not drawn),125,84,103,-22
CC(C)C(=O)N1c2ccccc2NC2=C(C(=O)CC(c3ccccc3)C2)C1c1ccccc1 (stereo not drawn),·,·,94,-2
O=C(Cn1c(=O)n(CCCS(=O)(=O)C2CCCCC2)c(=O)c2ccccc21)Nc1ccc(F)c(Cl)c1,99,96,101,-12
Cc1ccc(C)c(NC(=O)CSc2nc(=O)n(Cc3ccncc3)c3c2CCC3)c1,93,91,106,·
CCOC(=O)C1CCCc2c1[nH]c1c(C(=O)NCc3ccc(OC)cc3)cccc21 (stereo not drawn),·,·,100,-7
Cc1ccc(-c2ccc(=O)n(C(C)C(=O)Nc3ccccc3)n2)cc1S(=O)(=O)N1CCOCC1 (stereo not drawn),·,·,101,-32
OCCSc1sc(=S)sc1SCCO,89,93,·,-6
O=C(Nc1ccc(I)cc1)c1ccc(COc2ccccc2Br)o1,88,97,·,9
CCOc1cc(C2C(C(=O)OCCSCC)=C(C)NC3=C2C(=O)CCC3)cc(Br)c1O (stereo not drawn),·,·,106,10
CCCc1nc2ccccc2c(C(=O)OCC#N)c1CC,76,77,·,-6
Cn1nc(-c2ccc(F)cc2)nc2c(=O)n(C)c(=O)nc1-2,0.2*,0.1*,15*,83*
CC1(C)CC(NCC(O)COCc2ccco2)CC(C)(C)N1 (stereo not drawn),87,85,·,-22
O=C1CCC(=O)N1c1nc2n(n1)C(c1ccccc1Cl)C=C(c1ccc(Br)cc1)N2 (stereo not drawn),·,·,98,-20
O=C(COC(=O)c1ccccc1NC(=O)c1ccco1)c1ccccc1,85,90,·,-26
Cc1cc(C)c(C)c(C(=O)COC(=O)c2cc(=O)[nH]c3ccccc23)c1C,95,90,109,·
Cc1ccc(Cl)cc1N1CCN(C(=O)c2cnc(N3CCOCC3)c3ccccc23)CC1,99,102,111,·
Cc1ccc(S(=O)(=O)NCC(c2ccco2)N2CCN(c3ccccc3F)CC2)cc1 (stereo not drawn),108,84,101,·

Whole records as entered above. Screens in order: Sa growth 42C | Sa growth 42C second temp | GIV-Gai inh | HCMV NEC inh
CC(=O)N1CCOc2cc(S(=O)(=O)NCc3ccccc3Cl)c(Cl)cc21 across the screens: 94 | 104 | 103 | ·
Cc1ccc(S(=O)(=O)NCC(c2ccco2)N2CCN(c3ccccc3F)CC2)cc1 (stereo not drawn) across the screens: 108 | 84 | 101 | ·

Going on with the list:
molecule,Sa growth 42C,Sa growth 42C second temp,GIV-Gai inh,HCMV NEC inh
C=CCN(CC=C)S(=O)(=O)c1nc2nc(C)c(C)c(C)n2n1,79,90,108,2
COc1ccc(CNC(=O)c2nc(S(=O)(=O)Cc3ccccc3)ncc2Cl)cc1,59,47,97,-16
COc1ccccc1N(CC(=O)Nc1ccc(Oc2ccccc2)cc1)S(C)(=O)=O,98,84,103,-8
COc1ccc(OCc2ccc(-c3nc(C#N)c(N4CCN(c5ccccc5)CC4)o3)o2)cc1,100,91,95,-17
C=CCC(C#N)(CC=C)c1ccc(OC)c(OC)c1,81,81,103,-14
COc1ccc(-c2csc(/C(C#N)=C(\O)CN3C(=O)c4ccccc4C3=O)n2)cc1OC,99,88,·,-32
O=C1c2ccccc2C(=O)N1/N=C/c1ccc2c(c1)OCO2,93,93,100,-39
COc1ccc(N2C(=O)CC(N3CCN(c4ccc(S(C)(=O)=O)cc4)CC3)C2=O)cc1 (stereo not drawn),101,99,110,2
CC1CCCCN1S(=O)(=O)C1CCS(=O)(=O)C1 (stereo not drawn),·,·,103,-16
Cc1ccc(/C=N/O)o1,79,88,·,-22
Cc1sc2ncnc(SC(C)C(=O)NC3(C#N)CCCCC3)c2c1C (stereo not drawn),107,92,·,-29
O=C(O)CN(Cc1ccccc1)S(=O)(=O)/C=C/c1ccccc1,96,91,·,-16
CSc1ccc(CN(C)CC(=O)NCc2ccccc2)cc1,94,94,·,-4
COc1ccccc1-c1cc(C(F)(F)F)nc(S(=O)(=O)CCCC(=O)N2CCOCC2)n1,71,65,100,-22
C=CCn1cn[nH]c1=S,74,93,·,-14
C=CCn1ccn(-c2cccc(Cl)c2)c(=O)c1=O,101,90,101,-30
Cc1ccc2nc3c(cc2c1)CCN3C(=O)c1ccc(Br)cc1,·,·,108,-10
COC(=O)C(C(=O)OC)C(Nc1ccccc1)c1ccccc1 (stereo not drawn),62,44,·,52
Oc1ccccc1N1CCN(C(=S)NCCN2CCOCC2)CC1,69,86,·,-14
COc1ccc(C2CC(C(F)(F)F)n3nc(C(=O)NCCCN4CCOCC4)c(Cl)c3N2)cc1OC (stereo not drawn),·,·,92,-21
CSc1nnnn1-c1ccc(I)cc1,127,101,109,0
O=C(c1ccc(F)cc1)c1cc2ccc(O)cc2oc1=O,97,54,130,-56
CC(C)(C)c1ccc(-c2nc(NC(=O)CSc3ncnc4sc5c(c34)CCCC5)ns2)cc1,111,98,98,-8
Cc1[nH]c2ccccc2c1C=C1C(=O)OC2(CCCC2)OC1=O,97,90,109,-60
Cc1ccc(NC(=O)Cn2nnc3sc(-c4ccccc4)cc3c2=O)cc1Cl,102,88,158,-24

4 records picked at random from those above, as already listed:
molecule,Sa growth 42C,Sa growth 42C second temp,GIV-Gai inh,HCMV NEC inh
O=C(c1ccc(F)cc1)c1cc2ccc(O)cc2oc1=O,97,54,130,-56
O=C1c2ccccc2C(=O)N1/N=C/c1ccc2c(c1)OCO2,93,93,100,-39
Cc1sc2ncnc(SC(C)C(=O)NC3(C#N)CCCCC3)c2c1C (stereo not drawn),107,92,·,-29
COc1ccc(-c2csc(/C(C#N)=C(\O)CN3C(=O)c4ccccc4C3=O)n2)cc1OC,99,88,·,-32

The list continues.
molecule,Sa growth 42C,Sa growth 42C second temp,GIV-Gai inh,HCMV NEC inh
COC(=O)c1ccc(-c2ccc(/C=C3/C(=O)N(C)C(=O)C(C#N)=C3C)o2)cc1,95,87,100,-27
CCOC(=O)Nc1ccc(C)cc1C,105,87,·,-22
O=C(CN1C(=O)CCc2cc(S(=O)(=O)N3CCOCC3)ccc21)Nc1ccc(F)c(Cl)c1,·,·,106,-30
CC(C#N)(NC(=O)COc1ccccc1Br)C1CC1 (stereo not drawn),98,86,·,8
